Assay outcomes deposited in PubChem BioAssay by several laboratories.
Vif A3G = inhibitors of Vif binding to APOBEC3G peptide, primary screen, biochemical, TR-FRET, GST-Vif 1-94, biotin-A3G peptide, dose response retest (AID 1117319); actives 0.57% (n = 260,000); one-dose inhibition, %; IC50 in µM for titrated hits; TR-FRET GST-Vif / biotin-A3G peptide binding; higher % means a stronger effect; test concentration not given here; strong numbers were not always called active;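 active = above the screen mean plus three standard deviations and confirmed in dose response; inconclusive = results disagree or hit not tested in dose response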;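 note: Vif residues 1-94 fused to GST binding biotinylated APOBEC3G peptide 110-148; 0% = full assay without inhibitor and 100% = GST in place of GST-Vif; retest series ran down from 100 µM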
MLL AF4-AF9 inh = blocks AF4 peptide binding to human AF9 | P42568 | AlphaScreen, biotin-AF4 peptide binding to FLAG-AF9 | inhibition, % at 10 µM | actives 0.47% (n = 350,000) | AID 651704;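 active = every replicate reaching a set inhibition limit, whatever the replicate mean, cut at about 25% in these data; inconclusive = mean inhibition reaches that limit but some replicates miss it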;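 note: 0% = plate neutral control median and 100% = total signal loss; the record names both 10 and 1 µM as test concentration; the first replicate is given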
Target sequence (P42568 whole entry, looked up): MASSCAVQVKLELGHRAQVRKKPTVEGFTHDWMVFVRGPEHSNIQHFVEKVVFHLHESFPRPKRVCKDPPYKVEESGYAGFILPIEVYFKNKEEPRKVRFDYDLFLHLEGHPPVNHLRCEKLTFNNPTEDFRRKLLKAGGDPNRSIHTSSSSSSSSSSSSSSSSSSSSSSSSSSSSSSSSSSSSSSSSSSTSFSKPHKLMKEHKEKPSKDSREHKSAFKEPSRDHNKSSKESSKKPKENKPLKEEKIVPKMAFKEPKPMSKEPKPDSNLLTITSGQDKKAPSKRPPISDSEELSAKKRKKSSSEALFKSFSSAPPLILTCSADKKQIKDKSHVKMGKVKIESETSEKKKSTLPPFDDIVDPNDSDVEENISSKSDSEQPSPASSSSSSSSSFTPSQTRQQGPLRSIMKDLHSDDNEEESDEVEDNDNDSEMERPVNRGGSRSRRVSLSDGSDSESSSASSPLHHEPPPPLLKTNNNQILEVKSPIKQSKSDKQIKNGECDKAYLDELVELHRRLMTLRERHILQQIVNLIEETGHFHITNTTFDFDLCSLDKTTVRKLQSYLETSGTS
Beta cell apopt = blocks beta cell apoptosis; protection from apoptosis, % (no concentration beside the values); INS-1E cytokine-induced death, ATP luminescence, 48 h; percent of positive-control rescue, neutral wells zero; actives 0.8% (n = 300,000);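 active = all replicates at 75% or more, or half of them and the mean; inconclusive = half reach 75% but not the mean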;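 note: 0% = cytokine-treated negative control wells and 100% = positive control rescue; higher means more ATP so stronger rescue from cytokine killing; wells of about 40 µL received 100 nL stock; the first replicate is given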
Bfl-1 A1 inh = inhibitors of the anti-apoptotic protein A1, read as caspase activation | AID 2462 | caspase activation, % (test concentration not listed) | actives 0.066% (n = 330,000) | MEF A1-2A-BIM cells, Caspase-Glo 3/7 luminescence, 3 h; percent of clofoctol response, vehicle zero;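 active = over half of replicate activation scores above 10%, or exactly half above 10 with the replicate mean above 10; inconclusive = replicate mean below 10 yet half the replicates above 10; inactive = over half of replicates below 10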;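 note: wells of about 30 µL received 50 nL stock; many hits fall short of the cut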
* = called active by the depositor; u = inconclusive; x = not tested or not shown; & = joins results of further samples. Some of the compounds tested; rates above refer to the full screens.

Start of the data: the first four compounds, ahead of the listing:
(1) CC(=O)N[C@@H](CC(=O)N[C@H](CCC(=O)O)C(=O)O)C(=O)O
(2) O=C(OCC(=O)N1CCc2ccccc21)C1CCCN1S(=O)(=O)c1ccc(Cl)cc1 (configuration not stated)
(3) O=C(OCCN1CCCCC1)c1c[nH]c2ccccc12
(4) O=C(CC1C(=O)Nc2ccccc2N1CC(=O)N1CCCC1)Nc1ccc(Br)cc1 (configuration not stated)
compound no.	1	2	3	4
Vif A3G	x	x	x	x
MLL AF4-AF9 inh	3.2	0.6	5.1	1.3
Beta cell apopt	-1	-1	0	-1
Bfl-1 A1 inh	-0.2	-0.5	0.6	-0.5

The listing (from the top)
(1) CC(=O)N[C@@H](CC(=O)N[C@H](CCC(=O)O)C(=O)O)C(=O)O
(2) O=C(OCC(=O)N1CCc2ccccc21)C1CCCN1S(=O)(=O)c1ccc(Cl)cc1 (configuration not stated)
(3) O=C(OCCN1CCCCC1)c1c[nH]c2ccccc12
(4) O=C(CC1C(=O)Nc2ccccc2N1CC(=O)N1CCCC1)Nc1ccc(Br)cc1 (configuration not stated)
(5) CC(C)Cn1c(SCC(N)=O)nnc1-c1cccc(S(=O)(=O)N2CCOCC2)c1
(6) CC(NC(C)c1ccccc1Cl)C(=O)Nc1cccc(S(=O)(=O)N2CCCCC2)c1 (configuration not stated)
compound no.	1	2	3	4	5	6
Vif A3G	x	x	x	x	x	x
MLL AF4-AF9 inh	3.2	0.6	5.1	1.3	-1.6	1.8
Beta cell apopt	-1	-1	0	-1	3	-4
Bfl-1 A1 inh	-0.2	-0.5	0.6	-0.5	0.7	-0.1

(7) Nc1ncnc2c1ncn2C1C=C(CO)C(O)C1O (configuration not stated)
(8) Cn1c(=O)[nH]c(=O)c2c1nc(N1CCCC1)n2CCSc1nc2ccccc2[nH]1
(9) CCOc1ccc(C2C(C#N)=C(N)Oc3cc(C)n(CCN4CCOCC4)c(=O)c32)cc1OCC (configuration not stated)
(10) COc1cc(NS(=O)(=O)c2ccc(-n3cccn3)cc2)cc(OC)c1
(11) O=C(COc1nsnc1N1CCOCC1)N1CCOCC1
(12) Cc1ccc(NC(=O)c2snc3c(=O)[nH]cnc23)cc1C
compound no.	7	8	9	10	11	12
Vif A3G	-11%	-6%	-3%	-2%	2%	6%
MLL AF4-AF9 inh	x	x	x	x	x	x
Beta cell apopt	x	x	x	x	x	x
Bfl-1 A1 inh	x	x	x	x	x	x

(13) Cc1[nH]c(C)c(C(=O)O)c1CNC1CCCCC1C (configuration not stated)
(14) Cc1cccc(C)c1NC(=O)C1CCCN(CCCc2ccccc2)C1 (configuration not stated)
(15) Cc1cccc(CSc2nc3ccncc3n2CC(=O)Nc2ccc(C)c(C)c2)c1
(16) C=CCn1c2ccccc2c2nnc(SCCCn3c(=O)[nH]c4ccccc43)nc21
(17) Cc1nc2c3c4c(sc3n3c(SCC(=O)NCc5ccco5)nnc3n2n1)COC(C)(C)C4
(18) Cc1nc(NC2=NCN(Cc3cccnc3)CN2)nc2ccccc12
compound no.	13	14	15	16	17	18
Vif A3G	-3%	3%	-23%	1%	1%&25%	5%
MLL AF4-AF9 inh	x	x	x	x	x	x
Beta cell apopt	x	x	x	x	x	x
Bfl-1 A1 inh	x	x	x	x	x	x

(19) COc1cc2[nH]c(=S)nc(NC3CCCC3)c2cc1OC
(20) COC(=O)c1ccc(/C=N/Nc2nc(-c3ccc(Cl)cc3Cl)cs2)cc1
(21) CC(=O)c1ccc(N2C(=O)C3C(C2=O)C(C(=O)c2ccc(Cl)cc2)N2CCCC32)cc1 (configuration not stated)
(22) CCn1c(-c2ccc(F)cc2)cnc1SCC(=O)N1CCCCC1C (configuration not stated)
(23) O=C(Nc1ccc(Cl)cc1)/C(=C/c1ccc([N+](=O)[O-])cc1)c1nc2ccccc2s1
(24) CC(=O)N1CCC(=NNS(=O)(=O)c2cccc([N+](=O)[O-])c2)CC1
compound no.	19	20	21	22	23	24
Vif A3G	u	3%	12%	1%	18%	-4%
MLL AF4-AF9 inh	x	x	x	x	x	x
Beta cell apopt	x	x	x	x	x	x
Bfl-1 A1 inh	x	x	x	x	x	x

(25) COc1ccc(Cc2nnc(NC(=O)Cc3cccs3)s2)cc1
(26) COC(=O)c1ccc(C(=O)OC)c(NC(=O)CSc2nc(-c3ccco3)cc(C(F)(F)F)n2)c1
(27) COc1ccccc1NC(=O)C1=C(C)NC(SCC(=O)c2ccc(C)cc2)=C(C#N)C1c1ccco1 (configuration not stated)
(28) CCn1cc(C(=O)N/N=C(/C)c2ccc(F)cc2)c(=O)c2cc(F)c(N3CCCC3)cc21
(29) Fc1ccc(-c2nnc(CN3CCC(c4nc5ccccc5s4)CC3)o2)cc1
(30) c1ccc(CNn2c(N3CCOCC3)nc3ccccc32)cc1
compound no.	25	26	27	28	29	30
Vif A3G	u	-7%	-77%	-4%	-3%	19%
MLL AF4-AF9 inh	x	x	x	x	x	x
Beta cell apopt	x	x	x	x	x	x
Bfl-1 A1 inh	x	x	x	x	x	x

Profiles, looked up by structure:
Fc1ccc(-c2nnc(CN3CCC(c4nc5ccccc5s4)CC3)o2)cc1 is listed with Vif A3G = -3%; MLL AF4-AF9 inh = x; Beta cell apopt = x; Bfl-1 A1 inh = x
COc1ccc(Cc2nnc(NC(=O)Cc3cccs3)s2)cc1 is listed with Vif A3G = u; MLL AF4-AF9 inh = x; Beta cell apopt = x; Bfl-1 A1 inh = x
COC(=O)c1ccc(C(=O)OC)c(NC(=O)CSc2nc(-c3ccco3)cc(C(F)(F)F)n2)c1 is listed with Vif A3G = -7%; MLL AF4-AF9 inh = x; Beta cell apopt = x; Bfl-1 A1 inh = x

Further entries
(31) COc1cccc(/C=C2\SC(=S)N(CCCC(=O)Nc3cccc(C(=O)O)c3)C2=O)c1
(32) COc1ccc2cc(CN(CC3COCCO3)S(=O)(=O)c3c(C)cc(C)cc3C)c(=O)[nH]c2c1 (configuration not stated)
(33) O=C(Nc1cc2c(cc1Cl)-c1ccc([N+](=O)[O-])cc1C2=NO)C(F)(F)F
(34) O=c1/c(=C\c2cccn2-c2ccccc2)sc2nc3ccccc3n12
(35) CC(C)=CCC/C(C)=C/CNC(=O)C[C@H]1C[C@H](C(=O)N2CCCCC2)[C@@]2(CCc3ccccc3)c3[nH]c4cc(-c5ccco5)ccc4c3CCN2C1=O
(36) O=C(c1ccncc1)N1C2C=CC(C2)C1(C(F)(F)F)C(F)(F)F (configuration not stated)
compound no.	31	32	33	34	35	36
Vif A3G	-3%	-7%	-8%	-9%	-3%	4%
MLL AF4-AF9 inh	x	x	x	x	x	x
Beta cell apopt	x	x	x	x	x	x
Bfl-1 A1 inh	x	x	x	x	x	x

(37) O=C(CCNS(=O)(=O)c1ccc(Br)s1)N1CCN(c2ccccc2)CC1
(38) O=C(CN1CCN(C(=O)c2ccco2)CC1)Nc1c2c(nc3c1CCC3)CCCC2
(39) CC(C)[C@@H]1NC(=O)c2cc([N+](=O)[O-])cc(I)c2NCC[C@@H](C(N)=O)NC(=O)[C@H](CO)NC1=O
(40) CSc1ccc(/C=N/Nc2cccc(C(=O)O)c2)cc1
(41) CCCn1cnc2c(c1=O)c1nc3ccccc3nc1n2CCC1=CCCCC1
(42) CCOC(=O)C1=C(Cc2ccc(OC)cc2)C(=O)c2ccccc2C1=O
compound no.	37	38	39	40	41	42
Vif A3G	29%	14%	15%	11µM*	2%	24%
MLL AF4-AF9 inh	x	x	x	x	x	x
Beta cell apopt	x	x	x	x	x	x
Bfl-1 A1 inh	x	x	x	x	x	x

(43) CCC1(OC(=O)CN(C)C)C(=O)OCc2c1cc1n(c2=O)Cc2cc3c(N)cccc3nc2-1 (configuration not stated)
(44) Nc1ccccc1-c1n[nH]c(=S)s1
(45) Cc1cc(C)c(NC(=O)C(C)Sc2nnc(-c3ccco3)n2-c2ccccc2)c(C)c1 (configuration not stated)
(46) O=C(NCCC1=CCCCC1)C1CCN(S(=O)(=O)c2ccc(-n3cnnn3)cc2)CC1
(47) CC(=O)c1cn(CCCCCCCCCCn2cc(C(C)=O)c(=O)[nH]c2=O)c(=O)[nH]c1=O
(48) Cn1c(=O)c2c(SCC(=O)N3CCOCC3)nc(CC(C)(C)C)nc2n(C)c1=O
compound no.	43	44	45	46	47	48
Vif A3G	9%	-16%	0%	-2%	-3%	2%
MLL AF4-AF9 inh	x	x	x	x	x	x
Beta cell apopt	x	x	x	x	x	x
Bfl-1 A1 inh	x	x	x	x	x	x

(49) COc1ccccc1/C=N/n1c(N)c(C(=O)NC2CCCCC2)c2nc3ccccc3nc21
(50) CCOC(=O)c1cnc2c(N=Nc3cccc(Cl)c3)c(N)nn2c1N
(51) CC[C@@H]1C(c2cccc(Cl)c2)=NN(c2ccc(Br)cc2)[C@H]1C(=O)N1CCOC1=O
(52) CCOC(=O)COc1cccc2c(=O)n(CC(=O)NCCc3ccc(OC)c(OC)c3)ccc12
(53) CC(=O)c1ccc(N2CCN(C(=O)c3ccc4c(Cl)c5c(nc4c3)CCCC5)CC2)cc1
(54) CCc1nnc(NS(=O)(=O)c2ccc(NS(=O)(=O)c3ccc(NC(C)=O)cc3)cc2)s1
compound no.	49	50	51	52	53	54
Vif A3G	-3%&-4%	13%	2%	-3%	-1%	21%
MLL AF4-AF9 inh	x	x	x	x	x	x
Beta cell apopt	x	x	x	x	x	x
Bfl-1 A1 inh	x	x	x	x	x	x

(55) CC(C)CCOc1ncnc2c1sc1nc3c(cc12)CSC(C)(C)C3
(56) COc1ccccc1N1CCN(C(=O)c2oc3ccccc3c2C)CC1
(57) CCOC(=O)c1c(NC(=O)C(C)OC(=O)C2=COCCO2)sc2c1CCCC2 (configuration not stated)
(58) CC1CN(S(=O)(=O)c2ccc(C(=O)Nc3sc4c(c3C(N)=O)CCN(C)C4)cc2)CC(C)O1 (configuration not stated)
(59) Cc1cccc2cc(CN(Cc3cccs3)C(c3nnnn3C3CCCC3)C(C)C)c(=O)[nH]c12 (configuration not stated)
(60) Cc1nc(SCC(=O)c2cc3ccccc3oc2=O)c(C#N)c(C)c1C(=O)Nc1ccccc1
compound no.	55	56	57	58	59	60
Vif A3G	-5%	-2%	0%	-2%	0%&8%	2%
MLL AF4-AF9 inh	x	x	x	x	x	x
Beta cell apopt	x	x	x	x	x	x
Bfl-1 A1 inh	x	x	x	x	x	x

(61) COc1ccc2c(c1)c(=O)oc1cc3oc(C)c(C)c3cc12
(62) Cc1ccc(S(=O)(=O)NC(=O)N2CCC(C)CC2)cc1
(63) CCOc1ccc(-c2nc(-c3ccc(OC)c(OC)c3)no2)cc1OCC
(64) CCOC(=O)c1[nH]c(C)c(C(=O)O)c1C
(65) Cc1cccc(-n2c(N)cc(=O)nc2SC(C)C(=O)NC2CCCCC2)c1 (configuration not stated)
(66) O=C(O)c1cc(C(=O)O)cc(-c2ccc(/C=c3/sc4nc5ccccc5n4c3=O)o2)c1
compound no.	61	62	63	64	65	66
Vif A3G	13%	0%	26%	1%	-2%	u
MLL AF4-AF9 inh	x	x	x	x	x	x
Beta cell apopt	x	x	x	x	x	x
Bfl-1 A1 inh	x	x	x	x	x	x

(67) Clc1nssc1=Nc1ccccc1
(68) CCOc1ccc(C2=Cc3cc(OC)c(OC)cc3C(=C(Cl)Cl)O2)cc1
(69) COC(=O)c1sc(N2C(=O)c3oc4ccccc4c(=O)c3C2c2cccs2)nc1C (configuration not stated)
(70) COCCn1c(-c2cccs2)nc2c(c(=O)c3ccccc3n2C)c1=O
(71) Cc1cccc2cc(CN(CCCO)C(=O)Nc3ccc(Cl)cc3)c(=O)[nH]c12
(72) Cc1nc2cc(N3CCCCC3)c(NC(=O)c3ccncc3)cc2c(=O)n1Cc1ccccc1
compound no.	67	68	69	70	71	72
Vif A3G	10%	u	-29%&-11%	1%	13%	-7%
MLL AF4-AF9 inh	x	x	x	x	x	x
Beta cell apopt	x	x	x	x	x	x
Bfl-1 A1 inh	x	x	x	x	x	x

(73) COc1cccc(-c2sc3cc(OC)c(OC)cc3c2-c2ccc(OCCN3CCCCC3)cc2)c1
(74) Cc1ccc(NC(=O)c2csc(-c3ccccc3)c2C)cc1
(75) COCc1c(C(=O)OCC(=O)N2c3ccccc3NC(=O)C2(C)C)oc2ccccc12
(76) CCCCCCN(C(=O)CCCN1C(=O)NC(c2ccc([N+](=O)[O-])cc2)C(C(=O)OCc2ccccc2)=C1C)C(C)C(=O)NCCCC (configuration not stated)
(77) COc1ccc(CN2C(=O)/C(=C/c3ccc(-c4ccc(Cl)c(C(=O)O)c4)o3)SC2=S)cc1
compound no.	73	74	75	76	77
Vif A3G	-5%	-7%	19%	7%	11%
MLL AF4-AF9 inh	x	x	x	x	x
Beta cell apopt	x	x	x	x	x
Bfl-1 A1 inh	x	x	x	x	x
